TAR Tat displ: HIV-1 TAR-Tat binding disruption. hit rate 0.6% among 100,000. HIV-1 TAR RNA, Tat peptide displacement FRET; active compounds read high. z-score (no concentration beside the values);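 note: score is relative to mean and SD of negative controls; some compounds called inactive have numbers as strong as hits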
CDC25B CDK2 inh: human CDC25B-CDK2/CyclinA binding inhibition | hit rate 0.72% among 94,000 | HTRF CDC25B-CDK2/CyclinA binding, anti-His/anti-Flag; active compounds read high | z-score (concentration not given with the values) | P30305+P24941 | AID 1259370;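 note: score is relative to mean and SD of negative controls; strong numbers were not always called active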
The depositor's hits bear a star; x = not tested or not shown.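 Rule for the calls: active = z-score from 3 up in half or more of its runs; inactive = the rest.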

SMILES | TAR Tat displ | CDC25B CDK2 inh
OC(CCN1CCCCC1)(c1ccccc1)C1CC2C=CC1C2 (configuration not stated) | x | -1.1
COc1ccc(-c2ccc(-c3noc(C(C)C)n3)c(OC)n2)cc1 | 1.4 | -0.59
O=C(CSc1ccc(-c2ccncc2)nn1)N1CCOCC1 | 1.7 | x
CCOc1ccccc1N1CC(c2nc3ccccc3n2CCOc2ccccc2)CC1=O (configuration not stated) | 0.92 | -1
O=C(c1noc2ncnc(N3CCCC3)c12)N1CCC(c2ccccc2)C1 (configuration not stated) | 1.2 | x
CSc1nccc(-c2sc(-c3ccc(Cl)cc3)nc2C)n1 | x | -1.5
Cc1nc(N2CCN(C)CC2)nc2oc(-c3ccccc3)nc12 | 0.88 | x
Cn1c(SCc2ccccc2)nc2cc(C(F)(F)F)cnc21 | x | -1.3
Cc1ccccc1-c1noc2ncnc(N(C)CCO)c12 | -0.6 | x
CCNC(=O)C1CCCN1c1nn2c(=O)cc(C)nc2s1 (configuration not stated) | 3.5 | -1.1
Cc1cc(F)ccc1S(=O)(=O)NCCc1sc2nc(-c3ccc(F)cc3)nn2c1C | 1.4 | x
COc1ccc(C2CC(=O)c3cnn(-c4nc(C)cc(C)n4)c3C2)cc1OC (configuration not stated) | -1.7 | -0.69
COC(=O)c1sc2ccccc2c1S(=O)(=O)Nc1ccc(Oc2ccccc2)cc1 | 0.3 | x
CCCCSc1nnc2c(n1)OC(CC)N(C(C)=O)c1ccccc1-2 (configuration not stated) | x | -1.2
CC1(C)COC(c2ccc(Cl)cc2)=N1 | 1.3 | -1.9
O=C1CC(c2ccccc2)Cc2[nH]c(=O)c(-c3nc(-c4cccc(Cl)c4)cs3)cc21 (configuration not stated) | -0.22 | -3.4
COC(=O)CSc1ccc2nnc(-c3ccccc3)n2n1 | x | -1.8
CC1=CC(c2ccc(Cl)cc2)n2nc(NC(=O)CCCC(=O)O)nc2N1 (configuration not stated) | -0.84 | -0.1
O=C(CSC1=NS(=O)(=O)c2ccccc2N1)Nc1ccc(F)cc1F | 0.71 | x
Cc1ccc(-c2cnnc(-c3ccc(C)cc3)n2)cc1 | 0.33 | -0.55
CC1CCc2nc(N)c(C#N)c(-c3cccnc3)c2C1 (configuration not stated) | x | 0.03
CCCc1c(C)nc(SCC(=O)c2cccc([N+](=O)[O-])c2)[nH]c1=O | x | -1.5
CSc1nnc2c(n1)OC(C)=Nc1ccccc1-2 | -0.45 | -0.8
N#Cc1nc(-c2ccc(S(=O)(=O)N3CCc4ccccc4C3)cc2)oc1NC1CCCCC1 | 0.27 | -0.95
Brc1ccc(Nc2cnc3ccccc3n2)cc1 | 0.99 | x
Cc1nc(C)c(C(=O)Nc2nc3cc(C)c(C)cc3s2)s1 | -0.32 | -0.41
COC(=O)c1sc(NC(C)=O)c(C(=O)OC)c1C | -0.65 | -1
COc1ccc(-c2nc(=S)c3c(n2CCO)CCCC3)cc1 | 0.38 | -0.5
O=C(Cn1cnc(S(=O)(=O)N2CCCC2)c1)N1CCN(C(=O)c2ccco2)CC1 | -0.26 | x
Cc1c(C(=O)N2CCOCC2)c(S(=O)(=O)N2CCCc3ccccc32)c(C)n1C | -0.65 | x
Cc1oc(-c2ccccc2Cl)nc1CSc1nc2ncccc2o1 | 0.2 | x
Cc1ccc(-c2nnn(-c3cc(Cl)ccc3C)n2)cc1 | 2.3 | -2.5
O=c1oc2ccccc2n1CC1CCCN1S(=O)(=O)c1ccc(-n2cnnn2)cc1 (configuration not stated) | 0.94 | -1.9
COc1ccc(C2CC(=O)NC3=C2C(=O)CC(C)(C)C3)cc1Cl (configuration not stated) | 0.05 | 1.8
Cc1cc(S(=O)(=O)[C@H]2CS(=O)(=O)C[C@@H]2NCc2ccccc2Cl)ccc1F | -0.38 | -1.9
CCCCNC(=O)Cn1c(C(=O)OC)ccc1-c1ccco1 | -0.56 | x
OCc1noc(-c2ccccc2)n1 | x | -1.3
CCc1nnc2c(Nc3ccc(C)c(F)c3)nc3ccccc3n12 | 0.69 | x
CC(C)(C)c1ccc(C(=O)OCc2ccc3c(c2)OCO3)s1 | x | -1.1
Fc1cccc(-c2nc3ncccn3c2NC2CCCCC2)c1 | -0.56 | x
O=c1ccc(-c2ccc(S(=O)(=O)N3CCN(c4ccccc4F)CC3)o2)n[nH]1 | 1.7 | x
O=C(NCCCN1CCN(C2CCCCC2)CC1)C1CCCN(c2nnc(-n3cccc3)s2)C1 (configuration not stated) | 1.4 | x
CCc1ccc(OCc2cc(=O)n3cc(C)sc3n2)cc1 | 0.02 | 1.5
CC(C)c1nnc2sc(CCc3ccccc3)nn12 | -0.57 | -0.59
O=S(=O)(c1ccc2c(c1)Cc1cc(S(=O)(=O)n3cnc4ccccc43)ccc1-2)n1cnc2ccccc21 | x | -2.7
O=S(=O)(Nc1nc2ccccc2nc1Nc1ccc2c(c1)OCO2)c1ccc(Cl)cc1 | 0.26 | -1.7
Cc1cc(C)cc(NC(=O)CSc2nc(-c3ccccc3C)nc3cc(=O)[nH]n23)c1 | 0.68 | x
CCNc1nc(N2CCN(C)CC2)nc2c1cnn2C | 0.71 | x
COc1cc2c(cc1OC)C(=NCCC(=O)O)NC(C)(C)C2 | x | -2
CC1(C)Cc2nc3oc4c(NC5CCCCC5)ncnc4c3cc2CO1 | -0.68 | x
(further entries)
SMILES | TAR Tat displ | CDC25B CDK2 inh
O=C(CSc1nc2c(c(=O)[nH]1)CCCC2)Nc1cc(Cl)ccc1O | 1.6 | -2.4
COCC(=O)Nc1ccc2nc3c(c(Nc4ccc(OC)c(OC)c4)c2c1)CCCC3 | 1.4 | 0.48
O=C1c2ccccc2C(Nc2ccccc2Cl)N1Cc1ccc2c(c1)OCO2 (configuration not stated) | 2.7 | 0.77
CC1CCCCC1NC(=O)CN(C)S(=O)(=O)c1ccc2c(c1)c(=O)n(C)c(=O)n2C (configuration not stated) | 0.89 | -1.2
CSc1scc(NC(=O)Nc2ccc(OC(F)(F)F)cc2)c1S(=O)(=O)C(C)C | x | -0.58
Cc1cc(-c2ccc(C)c(S(=O)(=O)N(Cc3ccco3)C3CCCCC3)c2)on1 | 0.9 | x
CN1CCN(C(=O)c2nn3c(C(F)(F)F)cc(-c4cccs4)nc3c2Cl)CC1 | 2.4 | -1.6
Cc1ccc2c(=O)cc(CSCC(=O)Nc3nnc(C(C)C)s3)[nH]c2c1 | 2 | x
COc1ccc(-n2c(O)cnc2Nc2nc(C)cc(C)n2)cc1OC | -0.8 | -1
COc1cc(OC)c(N(C)C(=O)C2CCCN(c3ncnc4c3nc3n4CCCCC3)C2)cc1Cl (configuration not stated) | 0.69 | x
Cc1ccc(NC2CC(C)Nc3cc(C)ccc32)cc1 (configuration not stated) | -0.18 | 1.7
COc1ccc(-c2nc3ccc(Br)cc3c(=O)o2)cc1 | x | 0.55
CCc1ccc(Nc2ncccc2N)cc1 | -8.4 | x
O=C1c2cccnc2C(=O)N1Cc1ccc(F)cc1S(=O)(=O)NCCC1=CCCCC1 | 0.4 | x
O=C(CCCC(=O)NNC(=O)c1cccs1)NNC(=O)c1cccs1 | x | -2.2
C=CCn1c(SCC(=O)N2CCCC2)nc2cc(C(=O)NCc3ccco3)ccc2c1=O | x | -0.52
CC(C)NC(=O)CN1Cc2ccccc2C1=O | -0.72 | x
CN(c1ccc(Cl)cc1)c1cc(=O)n(C)c2ccccc12 | -0.76 | 0.77
CCCCN(C)c1c(N2CCN(C(=O)OCC)CC2)c(=O)c1=O | 0.46 | -1.7
CC1(C)CC(=O)c2c(oc3ccc(NS(=O)(=O)c4ccc(Br)cc4)cc23)C1 | -0.3 | -0.39
CCc1cc2c(cc3c(=O)n(CC(=O)NC4CCCC(C)C4C)ncn32)s1 (configuration not stated) | -1.3 | -1.4
COc1ccc2c(OC(C)=O)coc2c1 | x | -2.4
CN(CC(=O)O)c1ncnc2onc(-c3cccc(Cl)c3)c12 | -0.95 | -1.5
COc1ccc(OC)c(CNc2nc3ccccc3n2CCN2CCOCC2)c1 | 0.37 | -1.4
Cc1nn2c(c1-c1ccc(F)cc1)N=C(c1ccco1)CC2c1ccco1 (configuration not stated) | 1.3 | 2.8
CCOC(=O)c1c(C)oc2nc(C)nc(N3CCN(c4ncccn4)CC3)c12 | -0.24 | x
COc1cc(C)ccc1OCCSc1nc(-c2cccs2)nc2cc(=O)[nH]n12 | 1.8 | x
O=C(NCc1ccc2c(c1)OCO2)c1ccc2cn[nH]c2c1 | -2.2 | x
COc1ccc(OC)c(N2CC(c3nc4ccccc4n3CCOc3ccccc3OC)CC2=O)c1 (configuration not stated) | -0.98 | -1.7
CC(=O)/C=C\[C@@H]1[C@@]2(C)CCCC(C)(C)C2CC[C@@]1(C)O (some centres not stated) | 2.8 | x
O=C(NCc1n[nH]c(=O)c2ccccc12)c1ccc2c(c1)OCO2 | 1.9 | x
CC1CCN(S(=O)(=O)c2ccc3nc(N4CCN(C(=O)c5ccco5)CC4)ccc3c2)CC1 | 1.9 | x
NCCNCC1COC2(CCCCCCCCCCC2)O1 (configuration not stated) | x | -2.1
Cn1c(NCc2ccco2)nc2c1c(=O)n(Cc1ccc(F)cc1)c(=O)n2C | x | 0.68
Cc1cc(-c2ccc3c(c2)CN2CCC(O)C2=N3)n(C)n1 (configuration not stated) | 1.3 | x
CN1C(=O)Cc2cc(S(=O)(=O)CCC(=O)NC3CCCCC3)ccc21 | -0.04 | x
CSCCC(NS(=O)(=O)c1ccc2c(c1)oc(=O)n2C)C(=O)NCc1cccs1 (configuration not stated) | -0.73 | -1.2
CCOC(=O)c1c(C)oc2nc(C)nc(Nc3cc(Cl)c(OC)cc3OC)c12 | 0.51 | x
Cc1cccc(C2CC(=O)NC3=C2C(=O)CC(C)(C)C3)c1 (configuration not stated) | -0.92 | -0.79
Cc1sc2ncnc(Nc3ccccc3)c2c1C | 2.3 | 0.34
CCc1ccc(/C(C)=N/Nc2nc(-c3ccccc3)cc(-c3ccccc3)n2)cc1 | x | -0.22
COc1cccc(CNc2ccc3c(c2)ncn3-c2ccccc2)c1OC | x | -6.8
Cc1csc(NC(=O)Cn2cnc(S(=O)(=O)N3CCC(C)CC3)c2)n1 | -0.09 | x
COc1ccc(C(C)=O)cc1CSc1nnnn1-c1ccc(OC)c(OC)c1 | x | -1.1
Cc1cccc(OC(C)c2nc(-c3ccncc3)no2)c1 (configuration not stated) | 1.7 | -0.92
O=C(CCc1nnc2ccc(N3CCCC3)nn12)N1CCN(C(=O)c2ccco2)CC1 | 0.26 | x
CCOC(=O)c1c(C)oc2ccc(OC(=O)c3ccc(OC)c(OC)c3)cc12 | 0.84 | -4.2
Cc1nc2ccccc2c2oc(C(=O)NC3CCC(C)CC3)cc12 (configuration not stated) | 0.43 | -2.4
O=C(NCc1cccs1)c1cccnc1SCCS(=O)(=O)c1ccc(C(F)(F)F)cn1 | x | -6.1
O=C(Nc1ccc2c(c1)OCO2)C1CCN(c2cnccn2)CC1 | 2.2 | -1.7
Next section
SMILES | TAR Tat displ | CDC25B CDK2 inh
CC(C)Nc1nc(NCCN(C)C)nc2c1cnn2C | 1.6 | x
Cc1ccc(CNC(=O)CSc2nn3c(=O)c(C)nnc3s2)cc1 | 0.35 | x
CCCCN(C)C(=O)C1CCC(Cn2c(=O)[nH]c3ccsc3c2=O)CC1 (configuration not stated) | -0.39 | x
CN1C(=O)C2(c3ccccc31)C(C(=O)Nc1ccc(F)cc1)CC1CCCN12 (configuration not stated) | -0.76 | x
Cn1c(SCC(=O)N2CCc3ccccc32)ncc(C(=O)Nc2ccc(F)cc2)c1=O | 1 | x
Nc1nc(Nc2ccccc2)nc2c1ncn2[C@@H]1O[C@H](CO)[C@H](O)C1O (some centres not stated) | x | -0.11
CC(C)CNC(=O)c1cc(-c2ccco2)nc2ccccc12 | x | -3.8
COc1ccc(C2CC(=O)C3=C(C2)NC(C)=C(C(=O)OC(C)C)C3c2ccccc2OC)cc1OC (configuration not stated) | 0.52 | -0.25
O=C1c2ccccc2C(=O)C1(Nc1ccc(F)cc1Cl)c1ccccc1 | -0.06 | x

In a second layout: entries from further up.
mol,TAR Tat displ,CDC25B CDK2 inh
CCc1ccc(/C(C)=N/Nc2nc(-c3ccccc3)cc(-c3ccccc3)n2)cc1,x,-0.22
COc1cccc(CNc2ccc3c(c2)ncn3-c2ccccc2)c1OC,x,-6.8
Cc1csc(NC(=O)Cn2cnc(S(=O)(=O)N3CCC(C)CC3)c2)n1,-0.09,x
COc1ccc(C(C)=O)cc1CSc1nnnn1-c1ccc(OC)c(OC)c1,x,-1.1
Cc1cccc(OC(C)c2nc(-c3ccncc3)no2)c1 (configuration not stated),1.7,-0.92
O=C(CCc1nnc2ccc(N3CCCC3)nn12)N1CCN(C(=O)c2ccco2)CC1,0.26,x
CCOC(=O)c1c(C)oc2ccc(OC(=O)c3ccc(OC)c(OC)c3)cc12,0.84,-4.2
Cc1nc2ccccc2c2oc(C(=O)NC3CCC(C)CC3)cc12 (configuration not stated),0.43,-2.4
O=C(NCc1cccs1)c1cccnc1SCCS(=O)(=O)c1ccc(C(F)(F)F)cn1,x,-6.1
O=C(Nc1ccc2c(c1)OCO2)C1CCN(c2cnccn2)CC1,2.2,-1.7
CC(C)Nc1nc(NCCN(C)C)nc2c1cnn2C,1.6,x
Cc1ccc(CNC(=O)CSc2nn3c(=O)c(C)nnc3s2)cc1,0.35,x
CCCCN(C)C(=O)C1CCC(Cn2c(=O)[nH]c3ccsc3c2=O)CC1 (configuration not stated),-0.39,x
CN1C(=O)C2(c3ccccc31)C(C(=O)Nc1ccc(F)cc1)CC1CCCN12 (configuration not stated),-0.76,x
Cn1c(SCC(=O)N2CCc3ccccc32)ncc(C(=O)Nc2ccc(F)cc2)c1=O,1,x
Nc1nc(Nc2ccccc2)nc2c1ncn2[C@@H]1O[C@H](CO)[C@H](O)C1O (some centres not stated),x,-0.11
CC(C)CNC(=O)c1cc(-c2ccco2)nc2ccccc12,x,-3.8
COc1ccc(C2CC(=O)C3=C(C2)NC(C)=C(C(=O)OC(C)C)C3c2ccccc2OC)cc1OC (configuration not stated),0.52,-0.25
O=C1c2ccccc2C(=O)C1(Nc1ccc(F)cc1Cl)c1ccccc1,-0.06,x
